Screening data (PubChem BioAssay)
rRNA inh HTS = selective bacterial rRNA inhibition in E. coli; E. coli WT GFP vs humanized-ribosome RFP mutants, fluorescence, 24 h; hits give low values; DMSO median 0, no signal -100; 350,000 compounds, 1.6% hits; GFP signal change (wild-type ribosome), % (no concentration beside the values);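 active = significant combined selectivity score with lowered wild-type GFP, culture density cut under 30%, mutant RFP and density less affected; inactive = any of these conditions unmet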; also: one replicate is shown; some compounds called inactive have numbers as strong as hits
AF4-AF9 inh = MLL-AF4/AF9 protein interaction inhibition. P42568. AlphaScreen, biotin-AF4 peptide binding to FLAG-AF9. inhibition, % at 10 µM. 350,000 compounds, 0.47% hits. AID 651704;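 active = every replicate reaching a set inhibition limit, whatever the replicate mean, cut at about 25% in these data; inconclusive = mean inhibition reaches that limit but some replicates miss it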;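 also: 0% = plate neutral control median and 100% = total signal loss; the record names both 10 and 1 µM as test concentration; the first replicate is given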
Target sequence (P42568 whole entry, looked up): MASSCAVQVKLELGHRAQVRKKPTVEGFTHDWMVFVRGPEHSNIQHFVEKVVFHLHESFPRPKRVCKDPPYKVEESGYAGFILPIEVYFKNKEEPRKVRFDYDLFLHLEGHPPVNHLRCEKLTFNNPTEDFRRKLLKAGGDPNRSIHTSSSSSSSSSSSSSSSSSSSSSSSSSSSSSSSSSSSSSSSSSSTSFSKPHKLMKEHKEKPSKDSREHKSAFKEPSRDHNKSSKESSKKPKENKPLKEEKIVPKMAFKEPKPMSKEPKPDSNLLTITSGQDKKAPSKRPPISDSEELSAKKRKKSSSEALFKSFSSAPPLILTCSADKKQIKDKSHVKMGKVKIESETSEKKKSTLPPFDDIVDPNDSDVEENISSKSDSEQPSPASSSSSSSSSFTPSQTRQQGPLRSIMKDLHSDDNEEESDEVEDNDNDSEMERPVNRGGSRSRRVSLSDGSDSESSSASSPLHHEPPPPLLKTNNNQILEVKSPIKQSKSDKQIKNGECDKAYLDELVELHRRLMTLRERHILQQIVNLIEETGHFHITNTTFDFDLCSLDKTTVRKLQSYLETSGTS
rRNA inh HTS OD600 = recorded beside rRNA inh HTS, whose call it bears; OD600 change, %; measured here: OD600 growth;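 optical density of the mix in the first replicate; 0 = DMSO median and -100 = no signal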
rRNA inh HTS RFP = also measured in rRNA inh HTS; calls as there; RFP signal change, %; measured here: RFP humanized mutant strains;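 first replicate; 0 = DMSO median and -100 = no signal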
Numbers without * were called inactive; ? = inconclusive.

rRNA inh HTS | rRNA inh HTS OD600 | rRNA inh HTS RFP | AF4-AF9 inh | Compound
0 | -1 | -3.2 | 0.1 | O=c1cc(-c2ccc(O)cc2)oc2cc(O)c([C@@H]3O[C@H](CO)[C@@H](O)[C@H](O)[C@H]3O)c(O)c12
1 | -3 | -0.3 | 0.0 | C[C@@H]1CN([C@H](C)CO)C(=O)CCCn2nncc2CO[C@@H]1CN(C)Cc1cccc(O)c1
4 | 7 | -0.9 | -1.1 | CO[C@@H]1CN(C)C(=O)c2ccc(NC(=O)C3CC3)cc2OC[C@H](C)N(C(=O)CN(C)C)C[C@@H]1C
1 | -1 | -2.2 | -1.7 | COCCNC(=O)[C@@H]1[C@@H](CO)[C@@H]2Cn3c(ccc(-c4cccc(F)c4)c3=O)[C@H]1N2C(=O)NC(C)C
15 | 16 | 3.6 | -5.6 | CCN(C(=O)CSc1nnc(C)n1-c1ccc(C)cc1)c1c(N)n(Cc2ccccc2)c(=O)[nH]c1=O
-1 | -9 | -2.5 | -1.4 | COc1ccc(NC(=O)N(C)C[C@H]2Oc3ccc(NS(=O)(=O)c4ccc(Cl)cc4)cc3CC(=O)N([C@H](C)CO)C[C@H]2C)cc1
-1 | 8 | -0.1 | -2.3 | C[C@@H]1CN([C@H](C)CO)C(=O)Cc2cc(NC(=O)CCC(F)(F)F)ccc2O[C@@H]1CN(C)S(=O)(=O)c1ccccc1
4 | -10 | -4.5 | 0.4 | CC(NC(=O)CSc1ccc(S(=O)(=O)N2CCOCC2)cn1)c1ccc(Cl)cc1Cl (configuration not stated)
6 | 8 | 0.4 | -1.7 | CCCC#Cc1cnc2c(c1)C(=O)N([C@H](C)CO)C[C@@H](C)[C@@H](CN(C)S(=O)(=O)c1cn(C)cn1)O2
3 | 6 | 0.9 | 0.0 | CO[C@@H]1CN(C)C(=O)c2ccc(NC(=O)C3CC3)cc2OC[C@@H](C)N(Cc2ccccc2C(=O)O)C[C@H]1C
-65 | -80 | -21 | ? | C=Cc1ccc(CC2(C)C(=O)Nc3ccc(Cl)cc32)cc1 (configuration not stated)
3 | 5 | -10 | 0.9 | COc1ccc(Cl)cc1CNC[C@H]1O[C@@H](n2cnc3c(=O)[nH]c(N)nc32)[C@H](O)[C@@H]1O
0 | -19 | 1.5 | -2.6 | COc1ccc2c3c([nH]c2c1)[C@@H](CO)N(C(=O)Nc1ccc(F)cc1)CC31CN(S(=O)(=O)c2cccc(C)c2)C1
-3 | 2 | -2.6 | 1.7 | COc1ccc2c3c([nH]c2c1)[C@H](CO)N(C(C)=O)CC31CCN(C(=O)Nc2ccccc2F)CC1
1 | -2 | -3.0 | -3.0 | CCC(=O)N[C@@H]1C=C[C@@H](CC(=O)NCC2CCCCC2)O[C@H]1CO
-16 | -8 | 4.9 | 2.3 | COC(=O)[C@H](C)N1C/C=C\COc2c(Cl)cc(Cl)cc2S1(=O)=O
1 | -8 | -0.9 | -1.3 | CS(=O)(=O)Nc1ccc2c(c1)[C@H]1C[C@H](CC(=O)NCc3ccccc3F)O[C@H](CO)[C@H]1O2
0 | -4 | -0.5 | -0.3 | O=S(=O)(N[C@@H]1CC[C@H](CCn2cc(-c3ccc(F)cc3)nn2)O[C@@H]1CO)c1ccccc1F
1 | 5 | -1.4 | 4.7 | COc1ccccc1-c1cn(CC[C@H]2CC[C@H](NC(=O)C3CC3)[C@H](CO)O2)nn1
1 | 8 | -2.8 | -2.0 | C[C@H](CO)N1C[C@H](C)[C@@H](CN(C)C(=O)C2CCOCC2)Oc2ncc(C#CCc3ccccc3)cc2C1=O
4 | 12 | 0.3 | -2.3 | C[C@H](CO)N1C[C@H](C)[C@H](CN(C)S(C)(=O)=O)Oc2ccc(NS(=O)(=O)c3ccc(F)cc3)cc2CC1=O
2 | 3 | -1.1 | -1.5 | CN1CCN(C(=O)C[C@H]2C=C[C@H](NC(=O)Cc3ccccn3)[C@@H](CO)O2)CC1
2 | 11 | -1.0 | -1.3 | CCS(=O)(=O)Nc1ccc2c(c1)C(=O)N(C)[C@H]1CC[C@H](CC(=O)Nc3ccccc3C)O[C@@H]1CO2
-3 | -5 | 4.3 | 3.8 | C[C@@H]1CN([C@@H](C)CO)C(=O)c2cc(/C=C/c3ccccc3)cnc2O[C@H]1CN(C)S(=O)(=O)c1ccccc1
0 | -5 | 0.4 | 7.7 | CCCN(C)C[C@H]1OCCCC[C@@H](C)Oc2ccc(NC(=O)Nc3ccc(C(F)(F)F)cc3)cc2C(=O)N([C@H](C)CO)C[C@H]1C
1 | 9 | -1.1 | -0.2 | CN1C(=O)c2cc(NC(=O)c3ccccc3)ccc2OC[C@@H]2O[C@H](CC(=O)O)CC[C@H]21
-1 | -10 | -0.2 | -7.3 | C[C@H]1CN([C@@H](C)CO)C(=O)c2cccc(NC(=O)C3CCCCC3)c2O[C@@H]1CN(C)S(=O)(=O)c1ccccc1
-1 | 7 | 0.9 | -5.7 | CNC[C@@H]1Oc2ccc(NS(=O)(=O)c3cn(C)cn3)cc2CC(=O)N([C@@H](C)CO)C[C@@H]1C
1 | 5 | 2.0 | -4.0 | Cc1noc(C)c1NC(=O)Nc1ccc2c(c1)C(=O)N([C@H](C)CO)C[C@H](C)[C@@H](CN(C)C(=O)CCCN(C)C)OCCCC[C@H](C)O2
0 | -2 | -0.4 | -4.0 | COc1ccc(NC(=O)N(C)C[C@@H]2OCCCC[C@@H](C)Oc3ccc(NC(=O)Nc4ccccc4)cc3C(=O)N([C@H](C)CO)C[C@@H]2C)cc1

The last two entries of the section above lead into the next.
rRNA inh HTS | rRNA inh HTS OD600 | rRNA inh HTS RFP | AF4-AF9 inh | Compound
1 | 5 | 2.0 | -4.0 | Cc1noc(C)c1NC(=O)Nc1ccc2c(c1)C(=O)N([C@H](C)CO)C[C@H](C)[C@@H](CN(C)C(=O)CCCN(C)C)OCCCC[C@H](C)O2
0 | -2 | -0.4 | -4.0 | COc1ccc(NC(=O)N(C)C[C@@H]2OCCCC[C@@H](C)Oc3ccc(NC(=O)Nc4ccccc4)cc3C(=O)N([C@H](C)CO)C[C@@H]2C)cc1
-8 | -18 | 1.2 | 4.5 | COc1ccccc1S(=O)(=O)N1CC[C@@H]2[C@H](CO)Nc3ccc(-c4ccc(F)cc4)cc3[C@@H]21
-3 | -5 | 0.1 | 3.1 | COc1ccc(S(=O)(=O)Nc2ccc3c(c2)C(=O)N([C@H](C)CO)C[C@@H](C)[C@@H](CN(C)Cc2ccc(C(=O)Nc4ccccc4N)cc2)O3)cc1
5 | 2 | 0.2 | 1.8 | C[C@H](CO)N1C[C@H](C)[C@H](CN(C)S(=O)(=O)c2ccc(F)cc2)OCCCC[C@H](C)Oc2ccc(NC(=O)Nc3cccc4ccccc34)cc2C1=O
7 | -7 | 2.9 | 3.6 | CCc1nc2c(OCC3COc4ccccc4O3)cccn2c1N(C)C(=O)c1cccc(OC)c1 (configuration not stated)
-38 | -46 | -10 | 10 | C=Cc1ccc(CC2(C)C(=O)Nc3ccc(-c4cccnc4)cc32)cc1 (configuration not stated)
-2 | -2 | -0.3 | -2.6 | CN(C)CC(=O)N[C@H]1CC[C@@H](CCNC(=O)C2CCC2)O[C@@H]1CO
3 | 2 | 1.2 | 1.1 | COCC(=O)Nc1ccc2c(c1)OC[C@@H](C)N(C(=O)CN1CCOCC1)C[C@@H](C)[C@H](OC)CN(C)C2=O
0 | 13 | -4.8 | -0.1 | COCCNc1nc2cc(-c3ccc(F)cc3)sc2c(=O)n1C
6 | -19 | 17 | 2.2 | CCc1cnc(N2[C@@H](C#N)[C@H](c3ccc(C#CC(C)C)cc3)[C@@H]2CO)s1
1 | -3 | -2.4 | -0.7 | CCCS(=O)(=O)NC(=O)C1(C)CCN(C(=O)c2ccc(F)c(C)c2)C1 (configuration not stated)
0 | 3 | 2.0 | -1.2 | CO[C@@H]1CN(C)C(=O)c2ccc(NC(=O)Cc3ccccc3)cc2OC[C@@H](C)N(C(C)=O)C[C@@H]1C
1 | 0 | 2.4 | 1.0 | CCCN1[C@@H]2c3ccc(-c4ccc(OC)cc4)c(=O)n3C[C@@H]2[C@@H](CO)[C@@H]1C(=O)OC
1 | 2 | 2.7 | -14 | COc1ccccc1S(=O)(=O)N[C@@H]1CC[C@@H](CCNC(=O)C2CCCC2)O[C@@H]1CO
-1 | -5 | 0.2 | -0.1 | COc1ccc2c3c([nH]c2c1)[C@H](CO)N(C(=O)C1CC1)CC31CCN(Cc2nccs2)CC1
-1 | 0 | 0.8 | -3.9 | COCC(=O)N(C)C[C@H]1Oc2ncc(-c3ccc(C#N)cc3)cc2C(=O)N([C@H](C)CO)C[C@@H]1C
4 | -7 | 1.4 | -2.7 | CCCNC(=O)C[C@H]1CC[C@@H]2[C@H](COC[C@H](O)CN2C(=O)Nc2ccc3c(c2)OCO3)O1
3 | -2 | 0.2 | -1.0 | C[C@H]1CN([C@@H](C)CO)C(=O)Cc2cc(NC(=O)C3CC3)ccc2O[C@@H]1CN(C)Cc1ccccc1
5 | 8 | -0.3 | -2.2 | C[C@@H]1CN([C@H](C)CO)C(=O)c2cccc(NC(=O)Nc3ccccc3)c2O[C@@H]1CN(C)C
5 | 18 | -4.7 | 1.0 | COc1ccccc1-c1ccc2c(c1)[C@H]1[C@H](CCN1C(=O)C1CCOCC1)[C@@H](CO)N2
2 | 11 | 1.4 | 1.5 | Cc1noc(C)c1NC(=O)NCC[C@H]1CC[C@H](NC(=O)Cc2cccnc2)[C@H](CO)O1
2 | 15 | -2.0 | 1.9 | COc1ccc(CN2[C@H](CO)[C@H]3c4ccccc4NC[C@H]32)cc1
0 | 3 | 0.9 | -2.7 | O=C(Nc1ccc(C(F)(F)F)cc1)N[C@H]1CC[C@H](CC(=O)N2CCCCC2)O[C@@H]1CO
2 | 3 | -1.9 | -2.2 | O=C(C[C@@H]1C=C[C@@H](NC(=O)NC2CCCCC2)[C@@H](CO)O1)NCc1ccc(Cl)cc1
5 | 3 | -0.4 | -0.2 | COCC(=O)N1[C@@H](CO)[C@@H]2c3ccccc3N(C(=O)C3CC3)C[C@@H]21
0 | 4 | -1.5 | -2.0 | COCC(=O)NC[C@H]1[C@H](c2ccc(C3=CCCC3)cc2)[C@@H](CO)N1C(C)=O
-1 | 3 | 7.4 | -2.1 | CN1CCN(C(=O)c2cc3c(c(-c4cccc(-c5ccccc5F)c4)n2)[C@H](CCO)N([S@@](=O)C(C)(C)C)C3)CC1
-5 | 4 | -1.0 | -11 | C[C@H](CO)N1C[C@H](C)[C@H](CN(C)S(=O)(=O)c2cccs2)OCCCC[C@H](C)Oc2ccc(NC(=O)Nc3ccc4c(c3)OCO4)cc2C1=O
-30 | -58 | 11 | 0.0 | O=c1[nH][nH]c2c1[C@H](CCc1cccc(Cl)c1)O[C@H](CCc1ccccc1)C2
-26 | -51 | 36 | 25* | COc1ccc(CN(C)C[C@@H]2OCCCC[C@H](C)Oc3ccc(NC(=O)Nc4ccc5c(c4)OCO5)cc3C(=O)N([C@H](C)CO)C[C@H]2C)cc1
4 | 2 | -2.1 | -1.6 | COc1ccccc1CNC(=O)C[C@@H]1C=C[C@H](NC(C)=O)[C@@H](CO)O1
1 | -1 | -2.0 | -9.9 | CCc1cnc(N2[C@@H](C#N)[C@@H](c3ccc(-c4cccc(F)c4)cc3)[C@@H]2CO)s1
5 | 9 | 0.5 | -3.7 | C[C@@H]1CN([C@H](C)CO)C(=O)c2cccc(NC(=O)C3CCOCC3)c2O[C@@H]1CN(C)C(=O)NC1CCCCC1
0 | -7 | 0.2 | 4.3 | C[C@@H]1CCCCO[C@H](CN(C)Cc2ccc3c(c2)OCO3)[C@@H](C)CN([C@@H](C)CO)C(=O)c2cc(NC(=O)C3CCCCC3)ccc2O1
1 | 7 | -2.4 | 0.7 | CC(C)NC(=O)N[C@H]1CC[C@H](CC(=O)N2CCCCC2)O[C@H]1CO
1 | 1 | -0.4 | -2.0 | CO[C@H]1CN(C)C(=O)c2ccc(NS(=O)(=O)c3ccccc3C)cc2OC[C@H](C)N(C)C[C@H]1C
2 | 2 | -0.9 | -2.6 | CCCN1C[C@@H](C)[C@H](OC)CN(C)C(=O)c2ccc(NS(=O)(=O)c3ccccc3)cc2OC[C@@H]1C
7 | 11 | -2.9 | 1.5 | COC(=O)[C@@]1(Sc2ccc(C)cc2)CC(=O)N(c2cccc(SC)c2)[C@@H]1c1ccccc1
-3 | -15 | 3.9 | 2.7 | Cc1ccc(S(=O)(=O)NCC[C@H]2CC[C@H](NC(=O)Nc3cccc(F)c3)[C@@H](CO)O2)cc1

Ordered by the number under rRNA inh HTS RFP (lowest first): some entries from above
molecule | rRNA inh HTS | rRNA inh HTS OD600 | rRNA inh HTS RFP | AF4-AF9 inh
COC(=O)[C@@]1(Sc2ccc(C)cc2)CC(=O)N(c2cccc(SC)c2)[C@@H]1c1ccccc1 | 7 | 11 | -2.9 | 1.5
CCc1cnc(N2[C@@H](C#N)[C@@H](c3ccc(-c4cccc(F)c4)cc3)[C@@H]2CO)s1 | 1 | -1 | -2.0 | -9.9
CO[C@H]1CN(C)C(=O)c2ccc(NS(=O)(=O)c3ccccc3C)cc2OC[C@H](C)N(C)C[C@H]1C | 1 | 1 | -0.4 | -2.0
C[C@@H]1CN([C@H](C)CO)C(=O)c2cccc(NC(=O)C3CCOCC3)c2O[C@@H]1CN(C)C(=O)NC1CCCCC1 | 5 | 9 | 0.5 | -3.7
Cc1ccc(S(=O)(=O)NCC[C@H]2CC[C@H](NC(=O)Nc3cccc(F)c3)[C@@H](CO)O2)cc1 | -3 | -15 | 3.9 | 2.7

This is a subset, so the mix of outcomes need not match the whole.
